# From PubChem BioAssay
# Menin MLL FP FL – qHTS Assay for Inhibitors Targeting the Menin-MLL Interaction in MLL Related Leukemias: Competition With Fluorescein Labeled MLL-derived Peptide; 290,000 tested, under 10 active; FP activity change, % at 61.4 µM; Fluorescence polarization, fluorescein-MLL peptide displacement from menin; inconclusive = falling polarisation curve, or a change in total fluorescence; inactive = total fluorescence flat and polarisation flat or rising; no compound was filed as active; the % refers to the polarisation; negative = inhibition;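 further: % of control where 0% means no effect; inhibitors lower the polarisation; unlabelled MLL peptide was the positive control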
# TRPV1 potentiator – HTS Assay for Compounds that Act as Potentiators of the Vanilloid Receptor 1; Transient receptor potential cation channel subfamily V member 1 (Homo sapiens), Q8NER1; TRPV1-expressing cells, Fluo-8 calcium influx, capsaicin EC20 potentiation; host cell line not named in the record; control for the full effect not named in the record; potentiation, % at 8.33 µM; hit rate 0.02% among 320,000; active means potentiation above 80%; inconclusive means 30% to 80%; inactive means below 30%; further: 0% is about no effect
# Target sequence (Q8NER1 whole entry, looked up): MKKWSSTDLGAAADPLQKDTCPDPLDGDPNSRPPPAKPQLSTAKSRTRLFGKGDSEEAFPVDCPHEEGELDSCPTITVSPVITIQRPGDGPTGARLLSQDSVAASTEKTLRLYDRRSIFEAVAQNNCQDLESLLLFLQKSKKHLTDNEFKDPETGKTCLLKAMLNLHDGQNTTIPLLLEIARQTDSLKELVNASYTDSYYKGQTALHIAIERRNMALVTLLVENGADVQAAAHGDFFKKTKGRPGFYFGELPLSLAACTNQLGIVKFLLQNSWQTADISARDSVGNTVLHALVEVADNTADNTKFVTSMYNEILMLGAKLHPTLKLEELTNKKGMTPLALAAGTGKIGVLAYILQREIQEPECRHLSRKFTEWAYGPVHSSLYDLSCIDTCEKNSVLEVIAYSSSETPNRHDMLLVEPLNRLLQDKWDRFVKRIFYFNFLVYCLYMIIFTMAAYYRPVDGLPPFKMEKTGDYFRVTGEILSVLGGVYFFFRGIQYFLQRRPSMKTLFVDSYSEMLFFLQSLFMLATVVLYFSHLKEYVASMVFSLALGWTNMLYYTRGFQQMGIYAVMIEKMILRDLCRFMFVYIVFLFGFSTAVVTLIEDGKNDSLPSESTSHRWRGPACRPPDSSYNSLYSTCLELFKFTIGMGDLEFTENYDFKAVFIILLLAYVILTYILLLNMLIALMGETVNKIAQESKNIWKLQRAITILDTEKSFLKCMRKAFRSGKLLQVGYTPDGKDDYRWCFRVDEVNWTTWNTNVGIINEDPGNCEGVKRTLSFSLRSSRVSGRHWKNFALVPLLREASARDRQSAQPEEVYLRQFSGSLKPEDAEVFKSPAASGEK
#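 TRPV1-expressing cells were cultured overnight at 35.5C and loaded with Fluo-8 calcium dye for 40 to 90 min at room temperature. After a 10 s baseline, compound was added and calcium influx was read kinetically for 3 min (ex 480/em 520 nm).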
# gsp antag – qHTS for Antagonists of gsp, the Etiologic Mutation Responsible for Fibrous Dysplasia/McCune-Albright Syndrome: qHTS | gsp-mutant cells, cAMP HTRF, 30 min; control for the full effect not named in the record | Potency, µM (doses to about 76.9 µM), for inactives: at the top dose activity change, negative = inhibition, hits mostly inhibitors | hit rate 0.4% among 340,000 | AID 624288, 2012; active = falling curve of any shape with a large fitted effect; inconclusive = falling curve, mostly with a smaller effect; inactive = flat or rising curve; cell line not stated here;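 further: intracellular cAMP measured with PDE inhibitor Ro 20-1724 present during compound exposure; potency means the concentration at half of the fitted maximal effect; on the % scale 0 is the no-effect control and ±100 the full control effect; nearly all actives have a fitted effect of over 65% in size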
#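 HTRF cAMP read-out (cAMP-d2 plus anti-cAMP antibody-K in lysis buffer, 30 min RT). Before lysis, cells are exposed to compounds with […] for 30 min at 37C in DPBS containing Ca/Mg, BSA and Tween 20.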
# Sfp PPTase inh – qHTS Assay for Inhibitors of Bacillus subtilis Sfp phosphopantetheinyl transferase (PPTase); 4'-phosphopantetheinyl transferase ffp (Bacillus subtilis), Q9F4F7; Biochemical Sfp PPTase activity, qHTS; Potency, µM, for inactives: max response, negative = inhibition, actives largely listed as inhibitors; hit rate 3.5% among 310,000; AID 1490, 2009; active means well fitted inhibition curve with a large enough effect; inconclusive means small, poorly fitted or top-dose-only effect, or another doubt; inactive means no such curve, though single readings can be large or run the other way;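 further: the enzyme is Sfp with the accession as filed and its product quenches rhodamine fluorescence; potency means the concentration at half of the fitted maximal effect; 0% = enzyme reaction without inhibitor and -100% = no enzyme wells; top concentration of the series not given in the record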
#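 Compounds were incubated with enzyme (final 15 nM) for 15 min at room temperature before substrate addition started the reaction. Fluorescence at 525 nm excitation, 598 nm emission was recorded immediately and after 30 minutes.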
# CtBP-E1A blk – qHTS Assay for Inhibitors of the CtBP/E1A Interaction; activity change, % (concentration not given with the values); AlphaScreen GST-E1A/His-CtBP binding, 1536-well; stronger effect = lower value; control for the full effect not named in the record; CtBP / adenovirus E1A interaction (AlphaScreen); hit rate 0.49% among 340,000; in the data active means activity change below about -65%; inconclusive means about -30% to -65%; inactive means above about -30%; further: on the % scale 0 is the no-effect control and ±100 the full control effect
#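 AlphaScreen with 125 nM GST-E1A and 125 nM His-CtBP (5X stocks) in Tris pH 8.0, 300 mM NaCl, BSA, Tween 20, TCEP. Compounds preincubated 2 h at 37 deg C, then glutathione donor/nickel acceptor beads added for 1 h at 37 deg C in dark.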
# gsp agonist – qHTS for Agonist of gsp, the Etiologic Mutation Responsible for Fibrous Dysplasia/McCune-Albright Syndrome: qHTS; gsp mutant cells, cAMP HTRF, 30 min; control for the full effect not named in the record; Potency, µM (series often up to 76.9 µM), for inactives: at the highest dose activation (cAMP increase), actives largely listed as activators; hit rate 0.13% among 340,000; active = well fitted activation curve with a large enough effect; inconclusive = small, poorly fitted or top-dose-only effect, or another doubt; inactive = no such curve, though single readings can be large or run the other way; cell line not stated here;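 further: phosphodiesterase inhibitor Ro 20-1724 added with compounds to block cAMP breakdown; potency means the concentration at half of the fitted maximal effect; nearly all actives have a fitted effect of over 60% in size; about a fifth of the inactives were tested at one dose only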
#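 Cells stably selected in G418 were plated at 2000/well, grown 16-24 hr, then given compounds in DMSO with the PDE inhibitor […] (300 uM solution added) for 30 min at 37C; cAMP was read by HTRF.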
# ClpP mod – qHTS Assay for Activators of ClpP. hit rate 1.9% among 340,000. Potency, µM (series often up to 57.5 µM), inactives show at the highest dose activity change, negative = active. AID 651965, 2013. purified B. subtilis ClpP, FRET peptide cleavage, 20 min. ATP-dependent Clp protease proteolytic subunit (Bacillus subtilis (strain 168)), P80244; active = well fitted falling curve with a large enough effect; inconclusive = small, poorly fitted or top-dose-only effect; inactive = no such curve, though single readings can be large or run the other way; further: potency means the concentration at half of the fitted maximal effect; the source files actives as falling curves though it sought activators and does not explain the sign; nearly all actives have a fitted effect of over 65% in size; many hits overshoot -100%
# Target sequence (P80244 whole entry, looked up): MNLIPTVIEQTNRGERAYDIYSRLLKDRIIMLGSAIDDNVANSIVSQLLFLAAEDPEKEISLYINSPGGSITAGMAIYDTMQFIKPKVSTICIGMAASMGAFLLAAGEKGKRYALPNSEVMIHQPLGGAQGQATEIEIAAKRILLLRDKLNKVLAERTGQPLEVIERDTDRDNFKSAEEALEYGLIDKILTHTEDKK
#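 FRET quenching reversal measured ClpP activation: 10 microg/mL B. subtilis ClpP at pH 8 with the FRET-FV decapeptide, read at 430 nm after 320 nm excitation. The 20-min minus 0-min signal was scaled between DMSO/no-enzyme wells and ADEP (5.8 microM final).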
# Active calls of the source: *; ? = inconclusive; . = no result given; & = joins results of further samples; [ ] = remark or other dose.
SMILES,Menin MLL FP FL,TRPV1 potentiator,gsp antag,Sfp PPTase inh,CtBP-E1A blk,gsp agonist,ClpP mod
O=C(COc1ccc(/C=N/NC(=O)c2ccncc2)cc1)Nc1cccc([N+](=O)[O-])c1,-2.5,-5.0,-16.3%,4.8%,0.0,-3.5%,.
O=C1C2CCCCC2C(=O)N1Cc1ccccc1 (stereo not given),0.4,-4.5,6.8%,23.2%,3.6,-6.5%,.
O/N=C/c1cc(Br)cc(Br)c1OCc1ccccc1,2.3,-2.9,-27.6%,8.8%,1.0,0.0%,-2.1%
O=C(Nc1nnc(-c2ccccc2F)s1)C1CCN(S(=O)(=O)c2ccc(Cl)cc2)CC1,-0.2,-15.5,?,3.2%,-12.9,6.3%,?
CCC(C)NCCOCCOc1ccc(C)cc1OC (stereo not given),5.5,-3.8,-15.3%,-30.2%,3.3,-4.5%,0.5%
COc1ccc(OC)c(Nc2cc(C(=O)NCCCN3CCOCC3)c3ccccc3n2)c1,0.0,-23.7,7.1%,-14.4%,-1.5,0.2%,0.0%
CCc1ccc(N=c2c([N+](=O)[O-])nn(-c3ccccc3)n2O)cc1,1.8,-3.1,-5.9%,?,?,35.7%,0.4%
C/C(CCCO)=N/Nc1ccc([N+](=O)[O-])cc1[N+](=O)[O-],-3.4,0.1,-25.9%,-4.5%,-2.0,3.5%,-0.8%
O=C(COC(=O)C1CCN(c2ccc(C(F)(F)F)cn2)CC1)NCCc1ccccc1,.,0.0,-8.1%,.,3.2,5.3%[15.4 µM],1.3%
COC(=O)COc1cccc(NC(=O)c2ccc(Cl)cc2)c1,-0.8,-2.5,.,8.0%,-13.7,10.3%[15.4 µM],.
Cc1ccc(OCC(=O)NS(=O)(=O)c2ccccc2)cc1,2.0,1.0,6.2%,17.2%,6.5,-4.6%,.
COc1ccccc1CN(C)CC(=O)Nc1ccc(Cl)cc1F,4.8,-36.8,-6.7%,6.4%,42.5,-8.0%,1.1%
Cc1ccc(C)c(-n2c(-c3ccncc3)n[nH]c2=S)c1,1.8,5.7,-6.2%,1.4%,-22.3,5.5%[15.4 µM],-1.7%
CC(=O)c1nnn(-c2cccc(C#N)c2)c1C,0.4,?,19.5%,-3.0%,-4.4,0.0%[15.4 µM],0.6%
O=C(COc1ccccc1)Nc1nnc(-c2ccccc2Cl)o1,.,.,-1.1%,.,-18.1,5.0%[15.4 µM],-1.3%
O=C(NCCc1ccc(F)cc1)N1CCOCC1,0.5,-10.2,7.3%,8.5%,7.4,-11.5%,1.0%
Brc1ccc(CSc2ccc3nnc(-c4cccnc4)n3n2)cc1,3.6,12.7,7.6%,0.8%,-10.6,-0.6%[15.4 µM],-3.6%
COc1cc(NC(=O)C2CCCN2C(=O)OCc2ccccc2)cc(OC)c1 (stereo not given),1.6,0.1,9.8%,7.7%,-2.2,8.9%,-1.9%
CC(=O)Nc1ccc(-c2csc(NC(=O)CN3C(=O)NC4(CCCC4)C3=O)n2)cc1,.,6.5,2.4%,.,-12.8,3.8%,-3.2%
COc1ccc(NC(=O)COC(=O)CN2C(=O)C3CCCCC3C2=O)cc1 (stereo not given),.,.,.,.,1.1,-88.8%[inhibitor],-0.3%
CCOc1ccc(S(=O)(=O)N2CCCCC2)cc1NC(=O)C1COc2ccccc2O1 (stereo not given),.,12.5,-8.5%,.,-2.6,-2.1%,0.3%
Cc1onc(-c2ccccc2)c1C(=O)OCC(=O)Nc1ccc(C#N)cc1,.,-8.7,-22.4%,.,5.2,-26.8%,0.0%
CC(=O)OCC1=C(C(=O)O)N2C(=O)C(NC(=O)Cn3nc(C(F)F)c(Cl)c3C)C2SC1 (stereo not given),-1.1,5.6,.,4.6%,-19.2,1.6%[15.4 µM],.
O=C(NCc1ccccc1)C1(CC2CC(c3ccccc3)=NO2)CCNCC1 (stereo not given),.,1.6,5.0%,.,-3.3,.,1.0%
COc1ccc(N2CCN(C(=O)c3ccc4c(c3)OCO4)CC2)cc1,2.8,8.2,5.2%,-7.8%,2.1,4.9%,-6.3%
COc1ccc(OC)c(NC(=O)CSc2ccc3nnc(-c4cccnc4)n3n2)c1,-4.5,-10.3,13.8%,19.8%,5.0,13.8%[15.4 µM],-0.3%
COC(=O)c1ccc(/C=N/NC(=O)CCSc2nc3ccccc3s2)cc1,0.5,8.1,.,10.4%,.,.,.
COc1ccc(CSCCc2n[nH]c(=S)n2-c2ccccc2)cc1,0.7,-4.3,-51.3%,-28.6%,-16.0,18.0%[15.4 µM],0.6%
O=c1c(C=Nc2cccc(C(F)(F)F)c2)c[nH]n1-c1cccc(Cl)n1,1.0,-12.9,5.8%,0.3%,10.0,?,2.7%
Oc1ccc(/C=N/n2c(-c3ccco3)csc2=Nc2cccnc2)c(O)c1,7.9,8.3,?,44.7µM*,-92.8*,-3.6%[15.4 µM],-2.8%
Cc1cccnc1NC(=O)c1ccc(NS(=O)(=O)c2ccc3[nH]c(=O)[nH]c3c2)cc1,.,0.9,5.9%,.,-20.4,?,-9.9%
CCOP(=O)(c1c(F)c(F)c(F)c(F)c1F)C(O)c1ccccc1 (stereo not given),0.6,-1.6,-9.4%,9.3%,9.8,-6.7%,-2.7%
CCOCCCNS(=O)(=O)c1ccc(NC(=O)c2ccccc2)cc1,-0.6,1.3,13.5%,4.6%,-9.6,28.1%,0.8%
CCc1c(C(=O)N/N=C/c2ccc(OCc3ccc(F)cc3)c(OC)c2)nnn1-c1nonc1N,0.0,4.3,-2.0%,-0.5%,5.4,-6.5%,.
Cn1c(C(=O)N2CCC(C(N)=O)CC2)cc2c(=O)n(C)c3ccccc3c21,1.2,-2.8,4.4%,8.0%,-1.7,?,-7.6%
CCOc1ccc(-c2cccc(NC(=O)c3ccco3)c2)nn1,.,-3.4,-7.5%,.,-3.6,3.1%[15.4 µM],1.6%
O=C(CSc1ncnc2c1oc1ccccc12)NC1CCCC1,-0.4,-29.6,-9.8%,-1.5%,-8.3,?,-1.8%
O=c1[nH]c(CSc2ncnc3sc(-c4ccccc4)cc23)nc2ccccc12,4.9,10.2,-7.4%,-4.4%,5.8,-2.6%[15.4 µM],.
O=C(COC(=O)c1cc(=O)[nH]c2ccccc12)NC1CCCCCCC1,-0.3,0.1,10.9%,5.4%,-8.0,-5.0%[15.4 µM],.
COCCn1c(SCC(=O)NCC(c2ccccc2)N(C)C)nc2sc3c(c2c1=O)CCC3 (stereo not given),.,.,-1.4%,.,-0.4,-2.3%[15.4 µM],2.0%
COc1cc(/C=C2\SC(=S)N(CC(=O)NC(C)(C)C)C2=O)cc(OC)c1OC,9.8,-5.9,-32.4%,6.2%,-3.1,9.4%,0.5%
Cc1ccc(-n2nc(C(=O)c3ccccc3)n3c(=O)cc(-c4ccccc4)nc23)cc1,5.6,12.5,-1.1%,-6.6%,-0.8,8.3%,-0.2%
Cn1c(=O)[nH]c(=O)c2c1nc(N1CCN(C(=O)c3ccco3)CC1)n2CCCSc1ncccn1,.,.,18.2%,.,-0.6,?,-1.0%
CSc1nsc(SC)c1CO,1.7,14.9,-2.9%,9.0%,.,-19.4%,-0.9%
O=C1C[C@@H]2c3c(cccc3CN1Cc1ccc(Cl)cc1)C[C@@H](O)[C@H]2O,.,.,6.2%,.,1.1,?,-0.9%&0.6%
Cc1cn2c(-c3cccnc3)nnc2s1,3.0,7.7,-0.4%,-5.6%,2.4,?,-1.9%
CCCCNS(=O)(=O)c1ccc2nc(-c3cccnc3)cc(C(=O)NCCOC)c2c1,-0.4,-1.9,0.0%,3.9%,.,39.8%,-4.2%&-0.9%
CCN(CC)C(=O)C1CCN(S(=O)(=O)c2ccc(-n3cnnn3)cc2)CC1,-5.3,0.4,.,10.1%,-11.4,-10.6%[15.4 µM],.
Cc1ccc(Cn2c(SCC(=O)Nc3cc(C)on3)nc3ccccc3c2=O)cc1,0.8,27.0,13.5%,-15.0%,1.6,14.4%,-0.5%
O=c1c2c(-c3cccs3)csc2ncn1-n1cccc1,-1.8,6.8,-3.4%,0.5%,-9.9,6.9%,-9.4%
Cc1nc(-c2cccc(NC(=O)c3cccs3)c2)cs1,-0.4,-14.8,?,-0.7%,-12.3,2.6%,-5.1%
O=C(NCc1ccco1)C1CCN(S(=O)(=O)N2CCOCC2)CC1,2.7,8.6,8.5%,1.4%,4.0,-0.4%,0.3%
CCC1COCCS(=O)(=O)N1Cc1ccccc1F (stereo not given),-3.0,10.9,4.6%,8.5%,0.0,-1.4%,0.5%&-0.3%
Cc1ccc(S(=O)(=O)NNC(=O)/C=C/c2cccc(F)c2)cc1,4.1,-8.2,-1.6%,9.2%,.,3.3%,0.8%
O=C1C=C(N(CCO)Cc2ccccc2)c2ccccc2C1=O,-2.5,2.3,?,2.0%,?,-0.5%[15.4 µM],-3.7%
CC1CCCCN1C(=O)CSc1nnc(-c2c[nH]c3ccccc23)o1 (stereo not given),3.6,6.8,-25.6%,-0.6%,-3.6,-17.7%,-5.4%
COc1ccc(OC)c(NC(=O)CSc2nc(-c3ccccc3)cc(=O)[nH]2)c1,-0.4,3.7,-21.2%,-1.6%,.,?,1.3%
COc1ccc(OC)c(NC(=O)CSc2nnnn2C2CCCC2)c1,-13.9,15.8,-2.7%,2.4%,-2.0,2.1%[15.4 µM],0.6%
O=C(c1ccccc1)c1cc(-c2ccccn2)c(N2CCOCC2)s1,2.3,-10.3,-0.9%,1.9%,19.5,?,-0.3%
